Screening results deposited in PubChem by National Center for Advancing Translational Sciences (NCATS).
PINK1 modulator: modulators of PINK1 expression; AID 624263; 0.2% of 410,000 active; PINK1 immunofluorescence, high-content cytometry, 24 h; Potency, µM (highest dose often 76.6 µM), for inactives: at the top dose activation (PINK1 increase), hits mostly activators; active = well fitted activation curve with a large enough effect; inconclusive = small, poorly fitted or top-dose-only effect; inactive = flat fitted curve, though single readings scatter; cell line not stated here;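 note: % of control where 0% means no effect; nearly all actives have a fitted effect of over 65% in size; a mitochondrial uncoupler was the plate control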
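Readout is PINK1 immunofluorescence, quantified alongside mitochondrial, cell and nuclear markers by laser-scanning microplate cytometry. Cells from a stable line were exposed to compound titrations (5 concentrations) for 24 hours, with CCCP controls.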
Starred values were filed as active, the others as inactive. Potency is the fitted concentration of half-maximal effect. A portion of the library, so the mix of outcomes need not match the whole.

structure | PINK1 modulator
Cc1ccccc1Nc1c(-c2ccc(N3CCOCC3)cc2)nc2ccccn12 | 0.4%
O=C(c1ccc2c(c1)N(Cc1ccc(Cl)cc1)C(=O)c1ccccc1S2(=O)=O)N1CCN(c2ccccn2)CC1 | 0.5%
CC1Cc2cc(S(=O)(=O)CCC(=O)Nc3ccc(F)cc3)ccc2N1C(=O)C1CC1 (stereo unspecified) | 0.1%
COc1ccc(S(=O)(=O)NCCc2sc(-c3ccccc3)nc2C)cc1F | -1.2%
CC(=O)c1cccc(S(=O)(=O)NCCc2csc3nc(-c4ccc(F)cc4)nn23)c1 | -0.1%
Cc1cccc(C(=O)N2CCc3cc(CNC(=O)c4ccco4)ccc32)c1 | -0.4%
CCOC(=O)c1c(NC(=O)c2ccccc2Cl)sc2c1CCCC2 | -0.1%
Cc1nc2nc(SCC(=O)NCCc3ccc(Cl)cc3)nn2c(C)c1Cc1ccccc1 | 2.1%
C#CCOc1c(Br)cc(C2C(C(=O)OC)=C(C)NC3=C2C(=O)c2ccccc23)cc1OCC (stereo unspecified) | 3.5%
CCn1cc2nc(SCC(=O)Nc3ccc(OC)c(Cl)c3)n(Cc3ccc(OC)cc3)c(=O)c2n1 | -0.7%
COCCNC(=O)C1CCN(Cc2cc3ccccc3n2Cc2ccc(C)cc2)CC1 | -0.3%
CCOc1ccc(NC(=O)CCS(=O)(=O)c2cc3c4c(c2)CCN4C(=O)CC3)cc1 | 0.0%
COc1cccc(NC(=O)CSc2nc(O)c(C/C=C/c3ccccc3)c(=O)[nH]2)c1 | 0.0%
O=C(CSc1cn(CCNC(=O)c2c(F)cccc2F)c2ccccc12)Nc1ccc2c(c1)OCCO2 | 7.2%
Cc1nn(-c2ccc(N3CCCC3)nn2)c(C)c1CCC(=O)Nc1ccc(F)cc1F | 1.7%
CCOc1ccc(C(=O)OCc2cc(=O)n3cc(C)sc3n2)cc1 | 0.9%
CC1=C(C(=O)OCc2ccccc2)C(c2cccc(Cl)c2Cl)CC(=O)N1 (stereo unspecified) | 6.8%
COc1ccc(-c2nc(CSCC(=O)N3CCN(c4ccccc4F)CC3)c(C)o2)cc1 | 0.3%
CCOC(=O)C1=C(CS(=O)(=O)c2ccc(F)c(C)c2)NC(=O)NC1c1ccc(F)c(F)c1 (stereo unspecified) | 2.7%
CCCNC(=O)CN1C(=O)COc2ccc(S(=O)(=O)N3CCCC3)cc21 | 2.5%
CCOc1ccc(CCNC(=O)c2ccc(C)c(-n3cnc4cccnc43)c2)cc1 | -0.2%
COc1ccc(NC(=O)C2CCC(CNS(=O)(=O)c3cccc4nsnc34)CC2)cc1OC (stereo unspecified) | 0.7%
Cc1ccc2nc(Nc3ccc(C)c(F)c3)c3nncn3c2c1 | 1.8%
COC(=O)c1ccccc1NC(=O)c1cnn2c1NC(=C1CC1)C=C2C(F)F | -0.9%
CCN(Cc1ccncc1)Cc1ccc2c(c1)CN(C(=O)c1cccc3c(C)c(C)[nH]c13)CCO2 | 2.2%
O=C(NCCc1ccc(Cl)cc1)c1ccc2c(c1)N(Cc1ccc(Cl)cc1)C(=O)CS2 | 0.1%
CCCCSCCCNC(=O)c1cn(CC)c2ccc(S(=O)(=O)N(C)C3CCCCC3)cc2c1=O | 5.6%
CC(=O)Nc1cccc(NC(=O)CSc2ccc(-c3sc(-c4ccccc4)nc3C)nn2)c1 | 0.0%
Cc1ccc(NC(=O)Cn2c(=O)n(CCC(=O)NCc3ccccc3Cl)c(=O)c3ccccc32)c(C)c1 | 1.8%
COc1ccc(-c2cc(C(=O)NCc3ccc(F)cc3)c3c(-c4ccc(F)cc4)[nH]nc3n2)cc1OC | 9.4%

Part of the list above, as labelled records.
CC(=O)c1cccc(S(=O)(=O)NCCc2csc3nc(-c4ccc(F)cc4)nn23)c1
  PINK1 modulator: -0.1%

Cc1cccc(C(=O)N2CCc3cc(CNC(=O)c4ccco4)ccc32)c1
  PINK1 modulator: -0.4%

CCOC(=O)c1c(NC(=O)c2ccccc2Cl)sc2c1CCCC2
  PINK1 modulator: -0.1%

The list continues.
structure | PINK1 modulator
Cc1c(NC(=O)Cc2ccc(F)cc2)cccc1-c1nc2cccnc2s1 | 1.1%
O=C(COC(=O)c1cc(-c2cccs2)nc2ccccc12)c1ccc(Br)cc1 | 2.7%
CCOc1ccccc1NC(=O)Cn1ccn(-c2ccccc2)c(=O)c1=O | 2.1%
COc1ccc(OCC(=O)N2CCN(C(=O)c3cccc(OC)c3OC)CC2)cc1 | 0.3%
COc1ccc(-c2ccc3c(N)c(C(=O)NCc4ccc(Cl)cc4)sc3n2)cc1 | 5.8%
CCCCCCC1(C)NC(c2ccc3c(c2)OCO3)=CC(c2ccccc2O)N1 (stereo unspecified) | -0.4%
Cc1ccccc1-c1nc2c3c(-c4ccccc4)c(-c4ccccc4)oc3ncn2n1 | 0.2%
COc1cc(CN(C(=O)c2oc3ccccc3c2C)C2CCS(=O)(=O)C2)cc(OC)c1OC (stereo unspecified) | 0.4%
Cc1ccc(-n2ncc(C(=O)NCCCN3CCCCC3)c2C2CCN(C(=O)OC(C)(C)C)CC2)c(C)c1 | 4.1%
COc1ccccc1N1CCN(CC(O)COc2ccc(Cl)c(C)c2)CC1 (stereo unspecified) | 7.7%
CCOC(=O)c1c(NC(=O)c2noc3c2CC(C(C)(C)C)CC3)sc2c1CCCC2 (stereo unspecified) | 0.1%
CCCN(CCC)C(=O)Cn1c(=O)n(-c2cccc(OC)c2)c(=O)c2c3c(sc21)CCCC3 | 2.4%
CCOc1ccc(NC(=O)c2ccc(NC(=O)N3CCSc4ncccc43)cc2)cc1 | 0.1%
COC(=O)c1c(NC(=O)COc2ccc(OC)cc2)sc2c1CCC(C)C2 (stereo unspecified) | -1.0%
COc1ccc(S(=O)(=O)NCCc2nnc3ccc(SCC(=O)Nc4ccccc4C)nn23)cc1 | 2.0%
O=C(COc1ccc2oc3c(c2c1)CCCC3)Nc1cccc(Br)c1 | -0.2%
COc1ccc(CCNC(=O)Cn2c(=O)cc(C(F)(F)F)c3c(C)nn(C)c32)cc1OC | 0.5%
CC(=O)c1cc2c(cc1N/C(=N/S(=O)(=O)c1ccc(F)cc1)c1ccccc1)OCO2 | -0.2%
O=C(CNC1=NCCS1)c1c[nH]c2ccccc12 | -0.3%
CC(=O)Nc1ccc(NC(=O)CCC(=O)c2ccc(C)cc2)cc1 | 3.4%
CC(C)c1cc(-c2nc(-c3ccc(Cl)cc3)no2)n[nH]1 | 3.3%
CCOC(=O)c1c(C)sc(-c2c(-c3ccccc3)[nH]c3[nH]c(=O)[nH]c(=O)c23)c1O | 14%
CCOc1ccc(CCNC(=O)CCc2cn(Cc3ccc(F)cc3)c3ccccc23)cc1 | -0.9%
COc1ccc(OC)c(S(=O)(=O)N2CCC(c3ccncc3)CC2)c1 | -1.1%
COc1ccc(NC(=O)C2CCN(S(=O)(=O)c3ccc4c(c3)CCCC(=O)N4)CC2)c(OC)c1 | 1.4%
COc1ccccc1OCC(=O)Nc1cc(-c2ccc(C)cc2)no1 | -0.3%
O=C(Nc1ccc(S(=O)(=O)N(Cc2ccccc2)c2ccccc2)cc1)c1ccc([N+](=O)[O-])cc1 | 2.2%
COc1ccc2nc(NC(=O)c3ccc(S(=O)(=O)N4CCC(C)CC4)cc3)sc2c1 | -4.4%
CN(Cc1ccccc1)c1nnc(NC(=O)Nc2cccc(Br)c2)s1 | -1.6%
COc1ccc(N(Cc2cccs2)C(=O)c2ccc(Br)o2)cc1 | 0.2%
O=C(NCc1ccccc1)c1ccc(CS(=O)(=O)c2c(Cl)cccc2Cl)o1 | -0.6%
CCOC(=O)C1CCN(S(=O)(=O)c2cc(Br)cc3c2N(C(=O)CC)CC3)CC1 | 2.5%
Cc1cc2oc(=O)cc(C)c2c2occ(-c3ccc(Cl)cc3)c12 | -0.1%
Cc1cc(C)cc(NC(=O)Cn2c(=O)c3ccccc3n3nncc23)c1 | 2.2%
CCc1ccc(S(=O)(=O)c2nnn3c2nc(NCc2cccs2)c2sccc23)cc1 | 2.3%
CCOC(=O)c1ccc(NC(=O)CC2C(=O)N(c3ccccc3)C(=O)N2C2CCCCC2)cc1 (stereo unspecified) | 1.5%
COc1ccc(Br)cc1CNC(=O)CCSCc1ccc(C)cc1 | 0.2%
Cc1ccc(-n2ncc(C(=O)N(C)Cc3ccccc3)c2-n2cccc2)cc1 | -0.3%
COc1c(C)cc(NS(=O)(=O)c2ccc3c(c2)OCCO3)cc1C | 1.8%
Cn1c(COc2ccccc2C(C)(C)C)nc2ccccc21 | 4.3%
COc1ccc(NC(=O)CCn2c(=O)c3cccn3c3cccnc32)cc1Cl | 0.6%
CCc1ccc(CN(Cc2ccco2)C(=O)c2ccc(C)cc2)cc1 | 6.9%
CCN(CC)c1ccc(NC(=O)C2CCN(S(=O)(=O)c3cnc[nH]3)CC2)c(C)c1 | 0.2%
Cc1ccc(N2C(=O)C(CC(=O)Nc3ccccc3)N(CCC3=CCCCC3)C2=O)cc1 (stereo unspecified) | 3.9%
O=C(CC1N=C2c3ccccc3N=C(SCC(=O)Nc3ccccc3F)N2C1=O)NCc1ccc2c(c1)OCO2 (stereo unspecified) | 0.0%
Cc1ccc(NC(=O)c2ccc3[nH]c(C)cc(=O)c3c2)c(C)c1 | -1.4%
CCC(Sc1nc2ccccc2c(=O)n1CCc1ccc(OC)c(OC)c1)C(=O)N(CC)CC (stereo unspecified) | 0.4%
CCOC(=O)C1CCCN(C(=O)c2ccccc2NC(=O)c2nsc3ccccc23)C1 (stereo unspecified) | 1.2%
COC(=O)c1ccc(Cl)cc1NC(=O)N1CC=C(c2c[nH]c3ccccc23)CC1 | 0.3%
CC(C)CN(CC(C)C)CC(O)Cn1cc(/C=C/C(=O)c2ccccc2)c2ccccc21 (stereo unspecified) | -2.6%
COC(=O)c1scc(-c2ccc(C)cc2)c1S(=O)(=O)N1CCN(c2ccc(C(C)=O)cc2)CC1 | -0.2%
COc1cccc(CNC(=O)C2CCCN(c3ncnc4onc(-c5ccc(F)cc5)c34)C2)c1 (stereo unspecified) | 0.2%
COc1ccc(Cl)cc1NC(=O)c1ccc(CN2C(=O)CCn3nc(C)cc32)cc1 | 9.7%
Cc1ccc(C(=O)COC(=O)CCC(=O)Nc2ccc(Oc3ccccc3)cc2)cc1 | 0.0%
Nc1ncc(S(=O)(=O)NCc2ccccc2F)cn1 | -0.5%
CC1=C(C(=O)Nc2cccnc2)C(c2cccc(O)c2)n2nc(SCc3ccccc3)nc2N1 (stereo unspecified) | 0.1%
COc1ccc(C(Nc2ccccn2)c2ccc3ccc(C)nc3c2O)cc1C (stereo unspecified) | 12%
Cc1cccc2cc(CN(CC3CCCO3)C(=O)c3cccc(F)c3)c(N(C)C)nc12 (stereo unspecified) | -0.2%
CCOC(=O)c1c(C)oc2ccc(N(C(=O)c3ccncc3)S(=O)(=O)c3ccc(F)cc3)cc12 | -1.4%
COc1ccc(CNc2nc(-c3ccc(OC)c(OC)c3)cc(C(F)(F)F)n2)cc1 | 7.4%

A run of entries taken from the entries so far, for reference:
structure | PINK1 modulator
CCOC(=O)c1c(NC(=O)c2ccccc2Cl)sc2c1CCCC2 | -0.1%
Cc1nc2nc(SCC(=O)NCCc3ccc(Cl)cc3)nn2c(C)c1Cc1ccccc1 | 2.1%

Taken from above:
Value for Cc1ccc(C(=O)COC(=O)CCC(=O)Nc2ccc(Oc3ccccc3)cc2)cc1 in PINK1 modulator: 0.0%
Value for COc1ccc(Br)cc1CNC(=O)CCSCc1ccc(C)cc1 in PINK1 modulator: 0.2%

Later entries.
structure | PINK1 modulator
O=C(c1cnc(N2CCOCC2)c2ccccc12)N1CCN(c2ccccc2F)CC1 | 1.2%
OCCN1CCN(C(c2ccc(Cl)cc2Cl)c2sc3nc(-c4ccco4)nn3c2O)CC1 (stereo unspecified) | 4.1%
COc1ccc(-c2nc3cc(F)ccc3cc2CN(C(=O)c2cccs2)C2CC2)cc1 | -0.1%
Cc1ccc(CNc2ncnc3onc(C)c23)cc1 | -4.1%
CCCCN(C)C(=O)Cn1ncc2c([nH]c3ccc(C)cc32)c1=O | 1.7%
CCCCNc1nc(Oc2ccc(=O)n(C)n2)nc(N(C)C)n1 | 0.1%
Cc1c(C(=O)N(C)C)sc2c1c(=O)n(-c1ccc(Cl)cc1)c(=O)n2CC(=O)C(C)(C)C | 0.7%
COC(=O)c1cccnc1-n1c(=O)c2cccnc2n(CC(=O)Nc2c(C)cc(C)cc2C)c1=O | -0.8%
Cc1ccc(-n2nnc(-c3nsc(NC(=O)c4ccccc4)n3)c2C)cc1 | 5.5%
CCN(N=O)c1ccc(/C=C/c2ccnc3ccccc23)cc1 | -0.5%
CCN(c1ccccc1)S(=O)(=O)c1ccc(F)c(C(=O)Nc2ccc(C)cc2)c1 | 1.3%
Cc1ccc(-n2c(-c3ccco3)nc3c(cnn3-c3ccccc3Cl)c2=O)cc1 | 0.5%
CC1CCN(S(=O)(=O)c2ccc3c(c2)N(CC(=O)O)C(=O)CO3)CC1 | 4.1%
O=C(O)Cc1sc(Nc2ccccc2)nc1-c1ccccc1 | -0.7%
CCOc1cccc2sc(N3CCN(C(=O)C4CC4)CC3)nc12 | -0.4%
Cc1ccc(NC(=O)C2Cc3ccccc3N2C(=O)c2ccccc2)cc1Cl (stereo unspecified) | 7.5%
Cc1ccc(-n2ncc3c(=O)n(Cc4cccc(Cl)c4)cnc32)cc1C | 0.4%
Cc1cccc(OCCSc2nc3ccc(NC(=O)COc4ccccc4)cc3s2)c1 | 0.0%
